# High-throughput results from PubChem BioAssay.
# MT1-MMP act inh – inhibitors of human MT1-MMP activation. HT1080 RFP-PRO-GFP cells, GFP/RFP ratio fluorescence, overnight; percent of plate control window, DMSO zero. GFP/RFP ratio change, % at 20 µM. AID 651647. 0.061% of 360,000 active;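 active = GFP/RFP ratio change of at least 30% with cell ATP level not reduced by more than half and red fluorescence within 50% of control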; also: strong numbers were not always called active
#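 Test system: HT1080 RFP-PRO-GFP cells; Benchmarks: DMSO and RFP-L50D-GFP cell wells; Timing: cells overnight before dosing, compound overnight, 37 °C, 5% CO2; Compound: one 20 µM compound dose with 1% DMSO; Read-out: GFP/RFP fluorescence ratio.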
# Yeast UUG start – alters start codon recognition fidelity in yeast; S. cerevisiae UUG-firefly luciferase reporter, luminescence/redox ratio; activity score, % at 18.7 µM; 0.13% of 350,000 active; AID 602363;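 active = replicate mean at a twofold rise or more, about +100% in these data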;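 also: firefly luciferase made from a UUG start codon reports start codon fidelity; reporter light over untreated wells divided by growth signal over untreated wells; some hits fall short of that in this replicate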
# PABP polyA inh – blocks human PABP binding to poly(A) RNA; P11940; fluorescence polarization; inhibition, % at 35 µM; 1% of 290,000 active; AID 2014;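 active = 50% or more with normal probe brightness, or confirmed in later tests; about a fifth of its hits are not listed in these tables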;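 also: calls also rest on retests at 20 µM and on dose response follow-up; controls were probe without protein and protein plus probe with vehicle; some compounds called inactive have numbers as strong as hits; many hits fall short of the cut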
# CSC inhib – blocks cancer stem cells. cancer stem cell-like cells viability, luminescence. inhibition, % at 7.5 µM. 1.1% of 300,000 active;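 active = mean at 75% or more and at least half the replicates too; tested in HMLE shEcad cells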;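 also: 0% = median of negative and 100% = median of positive control wells; the first replicate is given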
# HIV Env fusion – HIV envelope-mediated fusion inhibition | AID 651610 | HeLa-JRFL Env/CEM21 cell fusion, luciferase | 1.1% of 360,000 active | inhibition, % at 12.3 µM;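 active = mean replicate inhibition score of at least 50 and every replicate individually at or above 50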;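 also: 0% = plate neutral controls and 100% = maraviroc near 300 nM; one replicate is shown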
# eIF4H FP inh – inhibitors of RNA binding by human eIF4H; Q15056; eIF4H fluorescence polarization binding assay; inhibition, % at 35 µM; 0.94% of 290,000 active; AID 2012;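 active = 50% or more with normal probe brightness, or confirmed in later tests; about a fifth of its hits are not listed in these tables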;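 also: calls also rest on retests at 20 µM and on dose response follow-up; 0% = protein and probe with vehicle and 100% = probe without protein; strong numbers were not always called active; many hits fall short of the cut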
# Rce1 inhib – inhibitors of yeast Ras-converting enzyme | Q03530 | yeast membranes, quenched prenylated peptide cleavage fluorescence | calls only | 0.27% of 290,000 active;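 active = fall in fluorescence gain of 50% or more versus controls, with final raw signal at or below 3038400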;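 also: plate controls were neutral control wells for no effect and wells lacking membranes for full effect; tested at 10 µM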
# Target sequence (Q03530 whole entry, looked up): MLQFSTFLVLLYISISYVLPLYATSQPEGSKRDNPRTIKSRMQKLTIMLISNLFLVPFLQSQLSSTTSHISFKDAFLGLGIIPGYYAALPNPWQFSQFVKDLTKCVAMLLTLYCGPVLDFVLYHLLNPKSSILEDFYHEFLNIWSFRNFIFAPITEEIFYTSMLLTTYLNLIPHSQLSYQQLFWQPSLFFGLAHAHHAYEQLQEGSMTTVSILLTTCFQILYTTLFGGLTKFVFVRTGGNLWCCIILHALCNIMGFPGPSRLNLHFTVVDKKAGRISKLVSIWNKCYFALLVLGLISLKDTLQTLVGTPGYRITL
# MT1-MMP act inh RFP – second read-out of MT1-MMP act inh, no call of its own (marks repeat the call); RFP signal change, %; measured here: RFP expression control read;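 0 = vehicle wells; hits needed this value within 50% of zero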
# Starred values were filed as active, the others as inactive; i = inactive; / = no result given. A portion of the library; count on the stated rates, not on these rows.
# Fields: MT1-MMP act inh, MT1-MMP act inh RFP, Yeast UUG start, PABP polyA inh, CSC inhib, HIV Env fusion, eIF4H FP inh, Rce1 inhib
COc1cc(C(=S)N2CCOCC2)ccc1OS(=O)(=O)c1ccc(Cl)cc1
→ 5, -7, -4, -5, 2, 24, -2, i
O=C(Cc1ccccc1)NN1C(=O)C2C3C=CC(C3)C2C1=O (configuration not stated)
→ 0, 4, 2, 0, -23, /, -14, i
Cc1ccc(S(=O)(=O)Cn2nnnc2CN2CCOCC2)cc1
→ -1, 1, -1, 6, 0, /, 0, i
N#C/C(=C\c1ccc(Sc2ccc(Cl)cc2)o1)c1nc2ccccc2[nH]1
→ -71, -16, /, 100*, 32, 21, 58*, /
COC(=O)CCC(=O)NC1CC(C)(C)Cc2c1cnn2-c1ccccc1 (configuration not stated)
→ 2, -1, 3, -16, 1, -14, 0, i
O=C(O)c1ccc2c(c1)ncn2C1CCCCC1
→ 6, 6, -8, 0, -14, /, -2, i
Cc1ccc2c(c1)C=CC(C#N)N2C(=O)c1ccccc1 (configuration not stated)
→ -5, -12, /, -9, 61, 35, -2, i
CN1CCN(S(=O)(=O)c2ccc(NC(=O)C3CCCCC3)cc2)CC1
→ -2, 0, 4, -11, -4, /, -12, i
C[C@H](NC(=O)c1ccco1)C(=O)Nc1ccc(S(=O)(=O)N2CCCC2)cc1
→ 0, -7, -5, -7, -3, -63, -5, i
O=C(Cc1sc(-c2ccccc2Cl)nc1-c1ccccc1)Nc1ccccc1
→ -1, 2, -20, -9, 3, /, 4, i
CC(C)(C)OC(=O)CC[C@@H](C(=O)N1CCN(C(=O)OC(C)(C)C)CC1)n1cc(C(CO)NC(=O)OC(C)(C)C)nn1 (some centres not stated)
→ 8, 0, -8, -6, -22, -17, 1, i
CC(C)CC(=O)Nc1nnc(S(=O)(=O)N2CCCCCC2)s1
→ 4, 3, -10, /, -10, 0, /, i
COc1cc(-c2nnc(SCC3(c4ccc(Br)cc4)OCCO3)o2)cc(OC)c1OC
→ -6, -10, -12, -8, 41, /, -3, i
CC(=O)N/C(=C\c1ccccc1)C(=O)OCc1ccccc1
→ 0, 0, 1, 3, 13, -7, -6, i
CCCN1CCN(C2CCCCC2NS(=O)(=O)c2ccccc2)CC1 (configuration not stated)
→ -2, 2, -8, -7, 12, /, 2, i
CCNc1ccc(C(=O)OCC(=O)N(Cc2ccccc2)C(C)(C)C)cc1[N+](=O)[O-]
→ 2, -4, /, -23, -13, -27, -18, i
CC12CCC(=O)N1C(C(=O)Nc1nc(-c3ccc(F)c(F)c3)cs1)CS2 (configuration not stated)
→ -1, -8, /, /, -13, /, /, i
CCCOP(=O)(OCCC)C(Nc1ccc(C(C)C)cc1)c1ccc([N+](=O)[O-])cc1 (configuration not stated)
→ -41, -32, /, 0, 25, 21, -1, i
CCC(C)[C@H]1CN=C(N)N1CCc1cccc(F)c1 (some centres not stated)
→ 0, 0, -18, /, -3, -18, /, i
Cn1c(CN2CCOCC2)nnc1SCC(=O)Nc1cccc(C(F)(F)F)c1
→ 5, 5, 7, 5, -14, 10, 0, i
O=C(c1ccccc1)N1CCSC1=S
→ 2, 7, /, 0, 6, -3, -3, i
COc1cc2c(C(=O)NCCN(C)C)cn(CC(C)C)c(=O)c2cc1OC
→ -12, 2, -9, 1, -21, -7, 10, i
N/C(=N\OC(=O)C1CCCCC1)c1cccnc1
→ 2, 1, /, 5, 5, /, 8, i
Cc1ccc(/C=C(\C#N)C(=O)NC(C)C)o1
→ 2, 1, 10, -11, /, 6, -6, i
Cc1cc(/C=N/Nc2ccc([N+](=O)[O-])cn2)c(C)n1-c1ccccc1
→ 0, 2, /, 35, 9, /, 3, i
Nc1c(C(=O)OCC(=O)Nc2ccc(OC(F)F)cc2)[nH]c(=O)[nH]c1=O
→ 0, 1, -8, /, /, 0, /, /
CC(C)CN(C(=O)COC(=O)CNC(=O)c1ccccc1F)c1c(N)n(Cc2ccccc2)c(=O)[nH]c1=O
→ -3, -1, -15, /, 6, /, /, i
O=C(CSc1nnc(NC(=O)c2cccc(Cl)c2)s1)NCC1CCCO1 (configuration not stated)
→ -1, 4, -9, -13, -7, -14, -13, i
COc1ccc(Nc2nc(Cl)c(C=O)s2)cc1
→ -43, -2, /, 2, 13, /, 38, i
Cc1ccc(OCCNS(=O)(=O)c2ccc(N3CCCC3=O)cc2)cc1C
→ 4, -11, -9, -1, -2, /, 0, i
O=S(=O)(c1cccc2nonc12)N1CCN(c2cccc(Cl)c2)CC1
→ -4, -5, -10, -3, -4, /, -5, i
CCOC(=O)C1CCCN(S(=O)(=O)c2cn(C)c(=O)n(C)c2=O)C1 (configuration not stated)
→ -3, 1, -14, -2, -6, -6, -7, i
Cc1c(=O)n(OCc2ccccc2F)c2ccccc2[n+]1[O-]
→ /, /, -5, 0, -11, -224, -6, i
CC(NC(=O)COc1ccc(Oc2ccccc2)cc1)C(=O)O (configuration not stated)
→ -2, 5, -28, 15, -10, -31, 4, i
O=C(O)/C=C/c1ccc(OCCCF)cc1
→ -1, 2, /, 7, 2, -7, -3, i
CC(OC(=O)c1ccc2c(=O)n3c(nc2c1)CCCCC3)C(=O)Nc1ncc(Cl)cc1Cl (configuration not stated)
→ -6, 0, /, -3, 9, -13, 2, i
Cc1n[nH]c(C)c1C(=O)CC1(O)C(=O)N(CCc2ccccc2)c2ccc(Cl)cc21 (configuration not stated)
→ -2, -1, -5, -5, 13, /, 9, i
COc1ccc(NC(=O)C(=O)Nc2cccc3cccnc23)c(OC)c1
→ -7, -6, 12, 0, -4, -2, 14, i
C[C@H](CO)N1C[C@H](C)[C@@H](CN(C)S(=O)(=O)c2ccc(F)cc2)Oc2ccc(NS(=O)(=O)c3ccccc3)cc2C1=O
→ 5, 0, 11, /, 3, 1, /, /
Cc1cc([N+](=O)[O-])cnc1N1CCOCC1
→ 1, -1, -8, -1, /, -13, -1, i
O=C(Nc1nnc(SCC(=O)N2CCCCC2)s1)c1c(F)cccc1F
→ -2, -3, 7, 14, /, 2, -7, i
Cc1cc(C)c2c(n1)sc1c(N3CCN(CCO)CC3)ncnc12
→ 8, 1, -14, 5, 6, -64, -7, /
O=C1CCc2cc(S(=O)(=O)N3CCN(C(=O)c4ccco4)CC3)ccc2N1
→ 3, 1, -25, -3, 5, 7, -9, i
COc1ccc(-c2csc(NC(C)=O)n2)cc1OC
→ 7, 1, -43, 3, 2, -86, 13, i
Cc1cccc(C(=O)N/C(=C\c2ccco2)C(=O)N2CCCCCC2)c1
→ -2, 0, -10, 1, 0, 6, 12, i
Cc1nnc(SCC(=O)Nc2ccc3c4c(cccc24)CC3)n1C
→ -4, -2, -9, 2, -12, /, 1, i
COc1ccc(/C=N/NC(=O)CCCCCNC(=O)c2ccccc2)cc1
→ 0, 1, /, 9, -17, 13, -6, i
CCOC(=O)c1csc(N/N=C2\CCc3ccccc32)n1
→ -2, -6, -17, 0, 0, -25, -7, i
COc1cc2c(cc1OC)C1=NC(=O)CN1C(SCc1ccccc1)=N2
→ 0, -10, -1, 7, 19, /, -12, /
CC(=O)Nc1ccc2nc(NC(=O)COc3cccc(C)c3)sc2c1
→ 4, 0, -10, -8, -13, 3, -4, i
COc1ccc(C2(C(=O)Nc3c(C)n(C)n(-c4ccccc4)c3=O)CCCC2)cc1OC
→ 0, 2, 17, 6, /, /, 2, /
Cc1ccc(/C=N/NC(=O)c2cccc3ccccc23)o1
→ 0, 6, /, 7, 5, 8, -13, i
Cc1cc(Br)ccc1SCC(=O)OCC(=O)c1c(N)n(C)c(=O)n(C)c1=O
→ 1, 5, /, -2, -7, -2, -6, i
Cc1cc(C(=O)N2CCN(Cc3ccc4c(c3)OCO4)CC2)cs1
→ 3, -1, -6, -8, 2, /, -9, i
COc1cc2c(cc1OC)C(C(=O)Nc1ccccc1N1CCN(C)CC1)C1c3ccccc3CCN1C2=O (configuration not stated)
→ -16, -6, /, 6, -16, -15, 2, i
CC1(c2ccccc2)NC(=O)N(NC(=O)CSc2n[nH]c(N)n2)C1=O (configuration not stated)
→ 5, 8, -31, -4, -15, 5, 8, i
CN(C)c1cc(C(F)(F)F)nc(-c2ccccn2)n1
→ -4, -7, -30, 3, -13, -73, -1, i
COc1ccc(CN(C)C(=O)C23CC4CC(CC(C4)C2)C3)c(OC)c1
→ -1, -4, -1, -4, /, -1, 2, i
CNS(=O)(=O)c1ccc2nc(NC(=O)c3ccc(N4C(=O)CCC4=O)cc3)sc2c1
→ 3, 3, /, 17, -10, 9, 4, i
Cc1ccc(/C=C/C(=O)NCCCN2CCN(CCCNC(=O)/C=C/c3ccc(C)cc3)CC2)cc1
→ 6, 1, /, 3, -4, -6, -11, i
COc1ccc(Nc2nc(N)nc(COc3ccc(OC)cc3)n2)cc1
→ 6, 4, -8, 3, -23, /, -9, i
CCn1cc(C(=O)N2CCN(c3ccccc3OC)CC2)c2cc(OC)c(OC)cc2c1=O
→ 1, 0, -10, 28, /, -2, 29, i
C[n+]1cccc(CNC(=O)/C=N/O)c1
→ -3, -3, /, 41, -9, /, -14, i

# 11 entries from above, ordered by number of heavy atoms, lowest first:
# Fields: MT1-MMP act inh, MT1-MMP act inh RFP, Yeast UUG start, PABP polyA inh, CSC inhib, HIV Env fusion, eIF4H FP inh, Rce1 inhib
C[n+]1cccc(CNC(=O)/C=N/O)c1
→ -3, -3, /, 41, -9, /, -14, i
O=C(O)/C=C/c1ccc(OCCCF)cc1
→ -1, 2, /, 7, 2, -7, -3, i
CCOC(=O)c1csc(N/N=C2\CCc3ccccc32)n1
→ -2, -6, -17, 0, 0, -25, -7, i
CC(NC(=O)COc1ccc(Oc2ccccc2)cc1)C(=O)O (configuration not stated)
→ -2, 5, -28, 15, -10, -31, 4, i
Cc1cc(C)c2c(n1)sc1c(N3CCN(CCO)CC3)ncnc12
→ 8, 1, -14, 5, 6, -64, -7, /
O=S(=O)(c1cccc2nonc12)N1CCN(c2cccc(Cl)c2)CC1
→ -4, -5, -10, -3, -4, /, -5, i
O=C(Nc1nnc(SCC(=O)N2CCCCC2)s1)c1c(F)cccc1F
→ -2, -3, 7, 14, /, 2, -7, i
O=C1CCc2cc(S(=O)(=O)N3CCN(C(=O)c4ccco4)CC3)ccc2N1
→ 3, 1, -25, -3, 5, 7, -9, i
CNS(=O)(=O)c1ccc2nc(NC(=O)c3ccc(N4C(=O)CCC4=O)cc3)sc2c1
→ 3, 3, /, 17, -10, 9, 4, i
COc1ccc(C2(C(=O)Nc3c(C)n(C)n(-c4ccccc4)c3=O)CCCC2)cc1OC
→ 0, 2, 17, 6, /, /, 2, /
Cc1ccc(/C=C/C(=O)NCCCN2CCN(CCCNC(=O)/C=C/c3ccc(C)cc3)CC2)cc1
→ 6, 1, /, 3, -4, -6, -11, i
